Source: PubChem
gsp ag: activates gsp, the McCune-Albright syndrome mutation. gsp mutant cells, cAMP HTRF, 30 min; control for the full effect not named in the record. hit rate 0.13% among 340,000. Potency, µM (series often up to 76.9 µM), for the others: at the top dose activation (cAMP increase), actives largely listed as activators; active = well fitted activation curve with a large enough effect; inconclusive = small, poorly fitted or top-dose-only effect, or another doubt; inactive = no such curve, though single readings can be large or run the other way; cell line not stated here;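 note: phosphodiesterase inhibitor Ro 20-1724 added with compounds to block cAMP breakdown; potency is the fitted concentration of half-maximal effect; nearly all actives have a fitted effect of over 60% in size; about a fifth of the inactives were tested at one dose only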
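Cells stably selected in G418 were plated at 2000/well, grown 16-24 hr, then given compounds in DMSO with the PDE inhibitor […] (300 uM solution added) for 30 min at 37C; cAMP was read by HTRF.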
gsp antagonist: antagonizes gsp, the McCune-Albright syndrome mutation. gsp-mutant cells, cAMP HTRF, 30 min; control for the full effect not named in the record. Potency, µM (highest dose often 76.9 µM), for the others: at the top dose activity change, negative = inhibition, most hits filed as inhibitors. hit rate 0.4% among 340,000. AID 624288; active = falling curve of any shape with a large fitted effect; inconclusive = falling curve, mostly with a smaller effect; inactive = flat or rising curve; cell line not stated here;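 note: intracellular cAMP measured with PDE inhibitor Ro 20-1724 present during compound exposure; potency is the fitted concentration of half-maximal effect; % is set by controls: 0 for no effect and ±100 for the full control effect; nearly all actives have a fitted effect of over 65% in size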
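Measurement of cellular cAMP by homogeneous time-resolved fluorescence following a 30 min compound exposure at 37C. The PDE inhibitor […] was present throughout; the assay buffer was DPBS with 0.05% BSA and 0.005% Tween 20.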
TRPV1 potentiator: human TRPV1 potentiation; Q8NER1; TRPV1-expressing cells, Fluo-8 calcium influx, capsaicin EC20 potentiation; host cell line not named in the record; control for the full effect not named in the record; potentiation, % at 8.33 µM; hit rate 0.02% among 320,000; active means potentiation above 80%; inconclusive means 30% to 80%; inactive means below 30%; note: 0% is about no effect
Target sequence (Q8NER1 whole entry, looked up): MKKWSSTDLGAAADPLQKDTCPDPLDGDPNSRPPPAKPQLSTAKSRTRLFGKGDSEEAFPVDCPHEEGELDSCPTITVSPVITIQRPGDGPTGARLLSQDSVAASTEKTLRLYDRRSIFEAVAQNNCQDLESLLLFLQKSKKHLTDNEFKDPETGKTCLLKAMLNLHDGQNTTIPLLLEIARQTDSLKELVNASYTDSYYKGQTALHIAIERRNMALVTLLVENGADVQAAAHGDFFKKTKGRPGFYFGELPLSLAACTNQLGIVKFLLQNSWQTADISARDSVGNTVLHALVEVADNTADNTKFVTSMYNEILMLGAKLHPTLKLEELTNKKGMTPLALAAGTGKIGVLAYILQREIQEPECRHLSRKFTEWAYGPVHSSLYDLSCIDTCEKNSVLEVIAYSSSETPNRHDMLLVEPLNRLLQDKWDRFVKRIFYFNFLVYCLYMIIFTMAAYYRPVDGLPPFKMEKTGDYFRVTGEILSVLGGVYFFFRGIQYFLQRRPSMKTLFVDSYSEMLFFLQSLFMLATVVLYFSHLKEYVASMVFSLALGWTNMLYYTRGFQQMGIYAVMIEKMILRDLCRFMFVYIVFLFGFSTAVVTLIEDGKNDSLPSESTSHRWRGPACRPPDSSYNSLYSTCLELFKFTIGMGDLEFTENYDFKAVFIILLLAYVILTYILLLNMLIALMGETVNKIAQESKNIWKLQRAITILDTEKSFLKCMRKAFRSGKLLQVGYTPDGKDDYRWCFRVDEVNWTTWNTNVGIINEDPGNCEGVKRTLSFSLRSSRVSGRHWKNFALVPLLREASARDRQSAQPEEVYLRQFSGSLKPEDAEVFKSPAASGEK
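Fluo-8 calcium influx in TRPV1-expressing cells, kinetic read (ex 480/em 520 nm). Compound added and read 3 min for agonist activity, followed by capsaicin at EC20 final and 2 min further read for enhancement.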
CtBP-E1A blk: CtBP/E1A binding inhibition; AlphaScreen GST-E1A/His-CtBP binding, 1536-well; hits give low values; control for the full effect not named in the record; activity change, % (test concentration not listed); hit rate 0.49% among 340,000; AID 651724; in the data active means activity change below about -65%; inconclusive means about -30% to -65%; inactive means above about -30%; note: % is set by controls: 0 for no effect and ±100 for the full control effect; compound concentration not given in the record
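GST-E1A and His-tagged CtBP (125 nM each as 5X stock) were preincubated with pin-transferred compound for 2 h at 37 °C in the dark, then glutathione donor and nickel acceptor beads were added for 1 h before AlphaScreen reading.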
Menin-MLL FL inh: menin-MLL binding inhibition, fluorescein peptide. AID 1766. 290,000 tested, under 10 active. FP activity change, % at 61.4 µM. Fluorescence polarization, fluorescein-MLL peptide displacement from menin; inconclusive = falling polarisation curve, or a change in total fluorescence; inactive = total fluorescence flat and polarisation flat or rising; no compound was filed as active; the % refers to the polarisation; negative = inhibition;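 note: % of control where 0% means no effect; inhibitors lower the polarisation; unlabelled MLL peptide was the positive control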
Sfp PPTase inh: inhibitors of Bacillus subtilis Sfp phosphopantetheinyl transferase; Q9F4F7; Biochemical Sfp PPTase activity, qHTS; Potency, µM, without a hit: max response, negative = inhibition, usual class: inhibitors; hit rate 3.5% among 310,000; AID 1490; active = well fitted inhibition curve with a large enough effect; inconclusive = small, poorly fitted or top-dose-only effect, or another doubt; inactive = no such curve, though single readings can be large or run the other way;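 note: the enzyme is Sfp with the accession as filed and its product quenches rhodamine fluorescence; potency is the fitted concentration of half-maximal effect; 0% = enzyme reaction without inhibitor and -100% = no enzyme wells; top concentration of the series not given in the record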
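Fluorescence-quenching assay with 15 nM Sfp, 5 uM rhodamine-CoA and 12.5 uM BHQ-2-labelled ybbR peptide in pH 7.6 Hepes/MgCl2 buffer. Enzyme was pre-incubated with compound for 15 min at room temperature. Rate was taken from the 30-min fluorescence change (525/598 nm).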
ClpP mod: qHTS Assay for Activators of ClpP | ATP-dependent Clp protease proteolytic subunit (Bacillus subtilis (strain 168)), P80244 | purified B. subtilis ClpP, FRET peptide cleavage, 20 min | Potency, µM (top dose mostly 57.5 µM), for inactives: at the highest dose activity change, negative = active | hit rate 1.9% among 340,000; active = well fitted falling curve with a large enough effect; inconclusive = small, poorly fitted or top-dose-only effect; inactive = no such curve, though single readings can be large or run the other way; note: potency is the fitted concentration of half-maximal effect; the source files actives as falling curves though it sought activators and does not explain the sign; nearly all actives have a fitted effect of over 65% in size; many hits overshoot -100%
Target sequence (P80244 whole entry, looked up): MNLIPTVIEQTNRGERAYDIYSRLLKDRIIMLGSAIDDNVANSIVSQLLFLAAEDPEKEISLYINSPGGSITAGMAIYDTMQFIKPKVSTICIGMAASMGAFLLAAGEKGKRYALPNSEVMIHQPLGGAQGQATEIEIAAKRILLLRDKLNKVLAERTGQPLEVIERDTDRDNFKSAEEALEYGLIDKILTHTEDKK
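ClpP 10 microg/mL final, pH 8 Tris/KCl buffer with BSA, glycerol, Tween-20; compound pinned in; FRET-FV substrate; RT 20 min; Ex320/Em430; ΔFRET vs ADEP 5.8 microM, DMSO, no enzyme.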
Active calls of the source: *; ? = inconclusive; · = not tested or not shown; & = joins results of further samples; [ ] = another dose, or the depositor's remark. Hits appear at their usual frequency. About 5.3% of those tested had a hit in this group.

Value order – gsp ag	gsp antagonist	TRPV1 potentiator	CtBP-E1A blk	Menin-MLL FL inh	Sfp PPTase inh	ClpP mod
- Cc1ccc(NC(=O)CN(C)C(=O)CN2C(=O)NC(C)(c3ccccc3)C2=O)cc1 (centres undefined)
 : 9%	-9%	2	-2	3.7	13%	1.1%
- COc1ccc(OC)c(CNC(=O)C2CCCN(c3nc4ccccc4o3)C2)c1 (centres undefined)
 : -2%	-18%	?	-8	-3.2	-15%	-1.8%
- Nc1cccn2c(-c3ccc(Cl)cc3)cnc12
 : -27%[15.4 µM]	-1%	-4	·	?	16µM*	·
- Cc1ccc(NC2(c3nnnn3-c3c(C)cccc3C)CCCCC2)cc1
 : -61%	?	2	·	-0.5	-9%	-0.5%
- CCOC(=O)C1CCN(C(=O)COC(=O)c2ccc(=O)n(Cc3ccccc3)n2)CC1
 : -5%	9%	11	3	·	·	3.0%
- O=C(O)C1CCCCC1C(=O)Nc1ccc(F)cc1F (centres undefined)
 : -6%	9%	6	4	0.5	12%	-0.8%
- CCc1ccc(C(=O)COC(=O)c2cnccn2)cc1
 : 7%	2%	-10	9	1.7	5%	1.9%
- COc1ccc(C(=O)NCC(=O)Nc2ccc(F)cc2)cc1OC
 : 13%	6%	16	-8	1.8	19%	-3.3%
- O=[N+]([O-])c1ccc(C=NN2CCOCC2)s1
 : -108%[inhibitor]	·	·	-3	·	·	1.8%
- CSCCCNC(=O)c1ccc(OC2CCN(CCc3ccccc3)CC2)cc1
 : ?	5%	-18	·	-9.8	-15%	0.1%
- O=C(COC(=O)c1ccccc1O)Nc1cccc(S(=O)(=O)N2CCCC2)c1
 : -48%[inhibitor]	-15%	-10	-10	·	·	4.0%
- Cc1c(Cl)c([N+](=O)[O-])nn1CCCC(=O)Nc1ccc(Cl)cc1Cl
 : -7%	-3%	2	-5	-1.2	5%	-2.8%
- Cc1cc(Cl)c(S(=O)(=O)NC2CCCC2)cc1OCC(=O)NC1CCCCC1
 : -26%	28µM*	9	-2	7.8	1%	0.4%
- Cc1ccc(-n2c(-c3ccc(Cl)cc3)c[n+]3c2CCC3)cc1
 : 9%	0%	3	-1	1.1	21%	0.5%
- CCOC(=O)NN=C1CCC(c2ccccc2)CC1 (centres undefined)
 : ?	?	6	0	0.5	0%	1.1%
- Cc1ccc(NC(=O)CSc2nc(C)c(C)c(C)n2)cc1S(=O)(=O)N1CCOCC1
 : 3%[15.4 µM]	3%	·	2	·	·	2.6%
- COCCn1c(N)c(N(Cc2ccccc2)C(=O)c2oc3ccccc3c2C)c(=O)[nH]c1=O
 : 14%[15.4 µM]	-15%	17	3	-8.3	7%	0.6%
- CS(=O)(=O)N1CCC(C(=O)Nc2c(F)cccc2F)CC1
 : -11%	-1%	-13	-2	2.9	8%	-1.5%
- O=S1(=O)CCC(N=Cc2ccc(-c3ccc(Cl)cc3)o2)C1 (centres undefined)
 : 21%	-4%	6	3	11	?	·
- Cc1nc(N2CCCCC2)nc(N2CCCCC2)c1C=O
 : -12%[15.4 µM]	3%	-18	·	15	13%	·
- COc1ccc(OC)c(NC(=S)NN2CCOCC2)c1
 : -23%	8%	9	0	-1.2	16%	-1.9%
- COc1ccc(Nc2nc(N)nc(CSC(=S)N3CCN(C)CC3)n2)cc1
 : -40%[inhibitor]	4%	14	·	-0.6	-2%	0.4%
- O=[N+]([O-])c1cc(Cl)cc(/C=N/Nc2nc3ccccc3s2)c1O
 : -5%[15.4 µM]	4%	-12	·	-0.1	0%	·
- O=C(COC(=O)c1cc(S(=O)(=O)N2CCOCC2)ccc1F)c1ccc[nH]1
 : 1%[15.4 µM]	8%	6	-1	0.6	12%	-4.1%
- CN(C(=O)c1cc2ccccc2oc1=O)C1(C)CCS(=O)(=O)C1 (centres undefined)
 : -2%	6%	5	10	-0.5	14%	·
- Cc1ccc(-n2c(SCC3CCCCO3)nnc2-c2ccco2)cc1 (centres undefined)
 : 1%	-13%	13	-4	1.8	13%	-0.5%
- CCCNC(=O)c1ccc(COc2ccc(C(C)(C)C)cc2)o1
 : 14%	-16%	-7	6	4.7	3%	·
- CCC(=O)C1CCCN(C(=O)c2ccc3nc(-c4cccc(OC)c4)oc3c2)C1 (centres undefined)
 : -1%	-7%	6	4	-0.3	-6%	-28%
- C=CCn1c(SCC(=O)N(C)C)nc2cc(C(=O)O)ccc2c1=O
 : 7%	11%	3	10	2.9	14%	-8.1%
- Cc1cccc(C)c1NC(=O)CCCCCNS(=O)(=O)c1ccccc1
 : -2%[15.4 µM]	-7%	1	0	-1.5	0%	·
- COc1ccc(-c2cc3ccccc3n2CC(O)CNC(CO)(CO)CO)cc1 (centres undefined)
 : -30%[inhibitor]	-3%	12	-1	-0.9	9%	35µM*
- COc1cc(C2N(c3cccc(Cl)c3)C(=O)C3CCCN32)cc(OC)c1OC (centres undefined)
 : -18%	-10%	-4	-2	1.3	17%	-3.6%
- CCN(c1ccc(OC)cc1)S(=O)(=O)c1csc(C(=O)N2CCCC2)c1
 : ?	-11%	-3	6	0.2	22%	-0.4%
- NC(=O)CSc1nnc(-c2cc(-c3cccs3)nc3ccccc23)o1
 : 4%	-14%	-15	-1	2.9	8%	25µM*
- C/C=C/C(=O)N1c2ccc(C)cc2C(C)=CC1(C)C
 : 1%	-4%	-3	·	0.3	4%	-1.8%
- NC(=O)CC[C@@H]1NC(=O)[C@H](CO)NC(=O)c2cc([N+](=O)[O-])cc(I)c2NCCC[C@@H](C(N)=O)NC(=O)[C@H](Cc2ccc(O)cc2)NC1=O
 : ·	2%	6	-6	1.2	5%	-0.9%
- O=C(/C=C/c1ccccc1)NCCCNC(=O)/C=C/c1ccccc1
 : 12%[15.4 µM]	-4%	-3	0	-1.6	28%	·
- CCCN(C)C[C@@H]1OCc2cnnn2CCCC(=O)N([C@H](C)CO)C[C@H]1C
 : -62%[inhibitor]	·	·	22	·	·	-1.3%
- O=C(CCN1CCCC1)Nc1cccc(Br)c1
 : 19%	8%	-6	1	-1.4	14%	-2.8%
- Cc1ccc(C(=O)CC(C(=O)O)n2cnc([N+](=O)[O-])n2)cc1 (centres undefined)
 : ?	4%	9	5	-0.4	8%	·
- CC(=O)Nc1nc(C)c(Oc2ccccc2)c(=O)[nH]1
 : -2%	4%	-9	1	-0.3	4%	5.4%
- Cn1c(=O)c2c(ncn2CC(=O)Nc2cc(S(=O)(=O)N3CCCCC3)ccc2O)n(C)c1=O
 : ?	13%	·	4	·	·	-1.6%
- Cc1ccc(C(=O)N2CCC3(CC2)Oc2ccc(Cl)cc2C(=O)C32CC(c3ccccc3)=NO2)s1 (centres undefined)
 : ·	-5%	4	-11	1.3	16%	-0.4%
- CCCN1CCN(S(=O)(=O)c2ccc(-n3cnnn3)cc2)CC1
 : 5%	5%	1	2	·	1%	-0.6%
- CCOC(=O)N1CCN(CC(=O)Nc2c(C(=O)OC)[nH]c3ccc(Cl)cc23)CC1
 : -28%	-31%	4	-10	2.9	-15%	?
- O=C(Nc1scc(-c2ccc(F)cc2)c1C(=O)O)c1ccco1
 : -42%[inhibitor]	?	8	0	-2.1	-3%	-1.9%
- O=C1N(c2ccccc2)C(c2ccc(Cl)cc2)N2CCCN12 (centres undefined)
 : -25%	2%	1	-25	-1.1	17%	1.7%
- COc1ccc(CCNC(=O)CN2C(=O)C(=O)N(C3CCCC3)C2=O)cc1OC
 : ?	8%	-7	-5	·	·	0.5%
- O=C(/C=C/C(Cl)(Cl)Cl)Nc1ccc(Cl)cc1
 : ?	-6%	·	2	·	·	1.0%
- Cn1c(N)c(C(=O)COC(=O)C2CCN(S(=O)(=O)c3cccs3)CC2)c(=O)n(C)c1=O
 : -12%[15.4 µM]	-4%	2	0	3.8	14%	·
- Cc1ccc(-c2cc(C(=O)NCC3(N(C)C)CCCCC3)c3ccccc3n2)o1
 : 19%	·	·	-16	·	·	4.1%
- CCCc1cc(=O)n2nc(N3CCC(C(=O)Nc4c(F)c(F)c(F)c(F)c4F)CC3)sc2n1
 : ?	18%	30	-4	·	3%	0.5%
- CCOC(=O)/C(O)=C/c1ncc(C(F)(F)F)cc1Cl
 : -27%	6%	-7	-9	3.4	10%	14%
- CCOc1ncccc1C(=O)OCC(=O)NCCc1ccccc1
 : -9%	-7%	8	-1	0.5	12%	-1.1%
- COCCn1c(C)cc(C2=NNC(=Nc3ccccc3F)SC2)c1C
 : 17%	-9%	?	-23	4.0	35µM*	-3.5%
- CC(C)OCCCNC(=O)c1ccc2c(c1)NC(=O)c1ccccc1S2
 : 0%[15.4 µM]	-22%	-13	5	3.4	5%	0.6%&-2.4%
- CN(CC(=O)Nc1ccc(F)cc1)C(=O)COC(=O)/C=C/c1ccc(OC(F)F)cc1
 : -6%[15.4 µM]	2%	-13	-9	·	·	·
- C=CCn1c(-c2ccc(Cl)cc2)ccc(C#N)c1=O
 : -66%[inhibitor]	-4%	5	28	4.1	15%	28µM*

Look-ups from the results shown:
ClpP mod with CCCc1cc(=O)n2nc(N3CCC(C(=O)Nc4c(F)c(F)c(F)c(F)c4F)CC3)sc2n1 stands at 0.5%
Sfp PPTase inh with Cn1c(N)c(C(=O)COC(=O)C2CCN(S(=O)(=O)c3cccs3)CC2)c(=O)n(C)c1=O stands at 14%
